Bioassay records from PubChem BioAssay.
Sa growth inh – inhibitors of Staphylococcus aureus growth at 42 °C | S. aureus RN4220 growth, OD600, 20 h; hits give low values | relative growth, % (test concentration not listed) | 170,000 compounds, 0.53% hits;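 active means growth at 42 °C up to 50% and 20 or more points under that at 30 °C, or under 10% at both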;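 further: 300 nL library stock went into each well; scaled to the means of positive and negative controls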
HCMV NEC inh – disrupts HCMV UL50-UL53 complex binding; AID 1918969; inhibition, % (test concentration not listed); 190,000 compounds, 0.15% hits; HTRF UL50-UL53 interaction, normalized percent inhibition;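 active means both replicates at 50% or more, plus weaker picks with an unusually low signal ratio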;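 further: stock transfer was 100 nL into about 20 µL; 0% = negative control wells and 100% = wells with untagged competitor protein; inactives centre near -12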
GIV Gai3 FP – inhibitors of GIV GBA-motif binding to rat Galpha-i3; percent of control (FP), % (no concentration beside the values); Galpha-i3/FITC-GIV peptide fluorescence polarization, 90 min; hits give low values; scaled: aluminum fluoride 0%, vehicle 100%; 210,000 compounds, 0.42% hits;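 active means replicate mean at 85% of control or lower, very high polarization wells dropped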;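 further: wells of about 15 µL received 100 nL stock; the first replicate is given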
Target sequence (P08753 whole entry, looked up): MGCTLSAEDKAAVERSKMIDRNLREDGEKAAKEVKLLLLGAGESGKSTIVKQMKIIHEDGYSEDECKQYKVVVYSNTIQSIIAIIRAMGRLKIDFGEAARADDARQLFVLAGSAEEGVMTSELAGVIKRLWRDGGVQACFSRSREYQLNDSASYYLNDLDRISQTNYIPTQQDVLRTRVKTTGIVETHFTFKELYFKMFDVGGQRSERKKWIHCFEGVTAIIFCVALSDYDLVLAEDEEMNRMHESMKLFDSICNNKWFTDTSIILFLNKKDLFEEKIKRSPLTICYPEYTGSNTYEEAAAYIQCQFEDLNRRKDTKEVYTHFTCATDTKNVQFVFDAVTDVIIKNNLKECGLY
Sa growth inh second temp – also measured in Sa growth inh; calls as there; relative growth, %; measured here: growth at 30 °C;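 optical density after 20 h as mean of two plates; 100% = untreated growth and lower means inhibition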
An asterisk follows results filed as active; · = no result given; & = joins results of further samples.

Structure | Sa growth inh | Sa growth inh second temp | HCMV NEC inh | GIV Gai3 FP
Cc1ccc(-c2ocnc2C(N)=O)cc1 | 81 | 96 | -4 | 101
CC(C)(C)c1nc(=S)[nH][nH]1 | 82 | 98 | -7 | 108
O=C(C[n+]1ccccc1)Nc1ccc(C(=O)O)cc1 | 109 | 87 | · | 98
COc1cc(/C=C2\SC(=S)N(C(C(=O)O)C(C)C)C2=O)cc(OC)c1O (stereo unspecified) | 94 | 83 | · | 231
Cc1ccc(-n2nnc(-c3nc(-c4ccccc4C)no3)c2C)cc1Cl | · | · | -22 | 102
O=C(Cn1cnc(SCc2ccccc2)n1)Nc1cccc(C(F)(F)F)c1 | 75 | 54 | · | 96
O=C1CCCC2=C1C(c1ccc(O)c(O)c1)c1c(ccc3ncccc13)N2 (stereo unspecified) | 79 | 57 | · | 104
CCSc1nc2c(sc3ccccc32)c(=O)n1CCCC(=O)NC1CCCCC1 | · | · | -15 | 106
COc1ccc2c(c1)CC(NS(=O)(=O)c1ccc(OC)c(OC)c1)CO2 (stereo unspecified) | · | · | 9 | 100
Cc1cc(N2CCCCC2)nc(C)n1 | · | · | -12 | 98
COc1ccccc1-n1c(=O)c(C#N)cc2c(=O)n3ccccc3nc21 | 100 | 88 | -123 | 117
O=P(O)(O)C(O)(Cc1cccnc1)P(=O)(O)O | 96&90 | 95&88 | -21&-53 | 99
O=C1Nc2ccccc2C12NNc1ccccc1O2 (stereo unspecified) | 87 | 90 | -12 | ·
CCS(=O)(=O)N(CC(=O)O)c1ccc(OC)cc1 | 93 | 89 | -7 | ·
CC(C)(C)NC(=O)N1CCc2ccccc2C1 | 101 | 96 | -4 | 106
COc1cccc(NC(=O)CSc2nc3ccccc3c(=O)n2CCc2ccccc2)c1 | 85 | 87 | 2 | 96
CCOC(=O)Cc1nnc(Nc2cc(C)ccc2C)c2ccccc12 | · | · | 4 | 104
CCOC(=O)c1c(-c2ccc(C)cc2)csc1NC(=O)c1snnc1C | · | · | -5 | 98
O=C(CSc1n[nH]c(-c2ccccc2)n1)NCCCc1ccccc1 | 98 | 94 | · | 103
Cc1cccc(-n2c(=O)c3c(c4cc(C)ccc4n3C)n(CC(=O)Nc3ccccc3Cl)c2=O)c1 | 83 | 90 | · | 101

The list continues.
Structure | Sa growth inh | Sa growth inh second temp | HCMV NEC inh | GIV Gai3 FP
CSc1ccccc1C(=O)NCCOc1ccccc1C(C)C | 121 | 78 | -12 | 101
C=CCn1c(SC)nc2c1c(=O)[nH]c(=O)n2C | 83 | 90 | -6 | 111
CCCCN(CC)C(=O)CCn1c(=O)c2cccn2c2cccnc21 | 100 | 61 | · | 103
Oc1ccc(Cl)cc1-c1ccnc2cc(-c3ccccc3)nn12 | · | · | -9 | 104
C=CCSc1nc(C)cc(=O)[nH]1 | 100 | 104 | 18 | 106
C=CCN(CC=C)C(=O)C1CCN(Cc2cccc(Cl)c2)CC1 | 100 | 101 | 12 | ·
Nc1nc(Nc2cccc3ccccc23)nc(C2CCCC2=O)n1 (stereo unspecified) | 89 | 112 | -17 | 100
CCCc1nc2c(C)cc(-c3nc4ccccc4n3C)cc2n1Cc1ccc(-c2ccccc2C(=O)O)cc1 | 85&92&92 | 53&69&59 | -39&-10&-3&9 | 105
Cc1ccc(-c2onc3ccc(C(=O)NC4CCN(Cc5ccccc5)CC4)cc23)cc1 | · | · | -15 | 99
Cc1ccc(CNC(=O)CSc2ncc3c(n2)-c2ccc(Cl)cc2N(Cc2ccccc2)S3(=O)=O)cc1 | 90 | 96 | · | 98
Cc1ccc(C)c(S(=O)(=O)n2ccnc2)c1 | 103 | 87 | -7 | ·
COc1cccc(C2=C(C(C)=O)Sc3nnc(C4CCCCC4)n3N2C(C)=O)c1 | 137 | 88 | · | 101
COc1cc(N/C(N)=N/c2nc(CSc3ccc(C)cc3)cc(=O)[nH]2)cc(OC)c1 | 97 | 92 | -4 | 104
COC(=O)c1cc2sccc2n1Cc1cc(=O)n2ccccc2n1 | 110 | 82 | · | 104
COc1cc2c(cc1OC)C(c1cccs1)NCC2 (stereo unspecified) | 94 | 89 | 2 | ·
CCCNC(=O)Cn1nc(C)c2c(C)n(-c3ccccc3)nc2c1=O | 91 | 95 | · | 111
Cc1cc(C)cc(C(=O)N(CCc2ccccc2)C2CC3CCC(C2)N3C)c1 (stereo unspecified) | 107 | 84 | 14 | 101
Cc1sc2ncn(CC(=O)N3CCN(c4ccc(Cl)cc4)CC3)c(=O)c2c1S(=O)(=O)N1CCN(c2ncccn2)CC1 | 116 | 92 | -2 | 104
CC1CN(c2nc(-c3ccc(F)cc3)cs2)CC(C)O1 (stereo unspecified) | 86 | 90 | -2 | 102
O=C(N/N=C/c1ccc(N2CCOCC2)cc1)C1CC1 | 91 | 99 | -47 | ·

Continuation:
Structure | Sa growth inh | Sa growth inh second temp | HCMV NEC inh | GIV Gai3 FP
CCc1cc2c(=O)c(-c3cnn(-c4ccccc4)c3)coc2c(CN2CCOCC2)c1O | 86 | 86 | -8 | 103
CC1(C)CC2CC(C)(CN2C(=O)CCCN2C(=O)c3ccccc3C2=O)C1 (stereo unspecified) | 114 | 97 | -55 | 104
O=C(Nc1ccc(SC(F)F)cc1)C12CCC(CC1)C2 | 89 | 92 | -8 | ·
COc1ccc(C(Nc2ccccn2)c2oc(CO)cc(=O)c2O)cc1 (stereo unspecified) | 84 | 80 | -19 | 98
O=C(O)/C=C\C(=O)N1CCc2ccccc21 | 95 | 104 | -7 | 102
N/C(=N\c1nc2c(c(=O)[nH]1)CCCC2)Nc1ccccc1 | 103 | 81 | · | 108
CCc1cccc(N2C(=O)CSC23C(=O)N(Cc2ccccc2F)c2ccccc23)c1 (stereo unspecified) | 108 | 77 | · | 103
O=S(=O)(c1cc(F)ccc1F)N1CCCC1c1ccccc1F (stereo unspecified) | · | · | -6 | 97
COc1ccc(-n2nc(C(=O)N3CCCCC3C)c3c4ccccc4n(C)c3c2=O)cc1Cl (stereo unspecified) | 98 | 89 | -16 | 104
Cc1oc(C(C)(C)C)cc1C(=O)/C(C#N)=C/Nc1ccccc1 | 92 | 90 | -21 | 107
CCOc1ccc(N(C)C(=O)C2CCN(S(=O)(=O)c3ccc4c(c3)CCCN4C(C)=O)CC2)cc1 | 81 | 84 | · | 94
COc1ccc(Cl)cc1NC(=S)NCCn1cc(Br)cn1 | 104 | 80 | -33 | 98
Cn1c(SCCn2c(=S)n(C)c3ccccc32)nc2ccccc21 | 91 | 93 | -13 | 102
COc1cccc(CNC(=O)c2ccc(Cn3c(SCc4ccccc4)nc4cccnc43)cc2)c1 | 170 | 87 | · | 98
Cc1onc(-c2c(F)cccc2Cl)c1C(=O)OCC(=O)NC1CC1 | 70 | 84 | 2 | ·
CCN(c1ccccc1)S(=O)(=O)c1ccc(CCN2C(=O)c3cccnc3C2=O)cc1 | 112 | 90 | · | 99
C=CCN=C1CCCc2c1[nH]c1ccc(C)cc21 | 75 | 72 | · | 102
S=C(Nc1ccccc1)N1CCCC1 | 82 | 106 | -17 | 102
O=C(C1COc2cc(S(=O)(=O)N3CCOCC3)ccc2O1)N1CCOCC1 (stereo unspecified) | 99 | 102 | 18 | 106
CCCCN(C)CCNC(=O)c1cc(=O)[nH]c2ccc(S(=O)(=O)N3CCCCCC3)cc12 | 101 | 83 | · | 100

(more compounds)
Structure | Sa growth inh | Sa growth inh second temp | HCMV NEC inh | GIV Gai3 FP
Cc1cc(Br)ccc1NC(=O)C1(S(=O)(=O)c2ccc(Cl)cc2)CC1 | 88 | 92 | -9 | 98
O=C(NCCCN1CCc2ccccc2C1)c1nnc(C(=O)Nc2ccccc2)s1 | · | · | -32 | 103
O=C(CCSc1nc(-c2ccco2)cc(C(F)(F)F)n1)NC1CC1 | 86 | 87 | -34 | 107
CCn1c(C2CC(=O)N(CCc3ccccc3)C2)nc2ccccc21 (stereo unspecified) | 101 | 71 | · | 105
O=C(Nc1nc(-c2ccco2)c(-c2ccco2)s1)OCc1ccccc1 | 93 | 87 | 2 | ·
CC(C(=O)c1ccccc1)n1cnc2ccccc2c1=O (stereo unspecified) | 98 | 85 | -1 | 105
CC1(C)N=C(SCc2ccc(F)cc2)c2ccccc2N1 | 100 | 97 | · | 109
CCOC1(NC(=O)c2ccccc2)C(C)=CC(=O)C=C1C | 130 | 93 | · | 102
CC1(C)CC2CC(C)(CN2C(=O)COC(=O)C2CCN(c3ccc(C(F)(F)F)cn3)CC2)C1 (stereo unspecified) | 86 | 88 | -22 | ·
CCNS(=O)(=O)c1cc(S(C)(=O)=O)ccc1Cl | 91 | 103 | -7 | 106
Cc1nn(C(=O)CNC(=O)c2ccccc2)c(C)c1C | 114 | 85 | · | 106
COc1ccccc1Nc1nc(-c2ccccc2)c(CC(=O)O)s1 | 92 | 88 | -24 | 109
Cc1cccn2cc(CNc3nc4ccccc4s3)nc12 | 113 | 88 | -8 | ·
O=C(Nc1ccc(S(=O)(=O)NC2=NCCCCC2)cc1)c1cccs1 | 78 | 90 | -27 | ·
Cc1noc(Cn2c(=O)c3ccccc3n(CC(=O)Nc3ccc(Cl)cc3)c2=O)n1 | 106 | 89 | -6 | 112&106
CCOC(=O)NN1CC(O)=C(c2nc3ccccc3n2C)C1=N | 89 | 84 | -13 | ·
Cc1cc(-c2onc(C)c2-c2noc(C)n2)no1 | 104 | 93 | 6 | 108
COc1ccccc1OCCSc1nc(C)cc(C)n1 | 84 | 71 | -26 | 104
CC(O)C(O)(c1ccccc1)c1ccccc1 (stereo unspecified) | 94 | 102 | 4 | 102
Cc1nc2ccccc2c2oc(C(=O)NCc3ccc(Cl)cc3)cc12 | 104 | 72 | 2 | 113

In the list so far, these contain a cyano group.
Structure | Sa growth inh | Sa growth inh second temp | HCMV NEC inh | GIV Gai3 FP
COc1ccccc1-n1c(=O)c(C#N)cc2c(=O)n3ccccc3nc21 | 100 | 88 | -123 | 117
Cc1oc(C(C)(C)C)cc1C(=O)/C(C#N)=C/Nc1ccccc1 | 92 | 90 | -21 | 107

4 entries from above in a different format.
O=C(CCSc1nc(-c2ccco2)cc(C(F)(F)F)n1)NC1CC1
  Sa growth inh: 86
  Sa growth inh second temp: 87
  HCMV NEC inh: -34
  GIV Gai3 FP: 107
CCNS(=O)(=O)c1cc(S(C)(=O)=O)ccc1Cl
  Sa growth inh: 91
  Sa growth inh second temp: 103
  HCMV NEC inh: -7
  GIV Gai3 FP: 106
O=C(Nc1nc(-c2ccco2)c(-c2ccco2)s1)OCc1ccccc1
  Sa growth inh: 93
  Sa growth inh second temp: 87
  HCMV NEC inh: 2
  GIV Gai3 FP: ·
Cc1cc(Br)ccc1NC(=O)C1(S(=O)(=O)c2ccc(Cl)cc2)CC1
  Sa growth inh: 88
  Sa growth inh second temp: 92
  HCMV NEC inh: -9
  GIV Gai3 FP: 98

Back to the main list, starting five compounds before the break.
Structure | Sa growth inh | Sa growth inh second temp | HCMV NEC inh | GIV Gai3 FP
CCOC(=O)NN1CC(O)=C(c2nc3ccccc3n2C)C1=N | 89 | 84 | -13 | ·
Cc1cc(-c2onc(C)c2-c2noc(C)n2)no1 | 104 | 93 | 6 | 108
COc1ccccc1OCCSc1nc(C)cc(C)n1 | 84 | 71 | -26 | 104
CC(O)C(O)(c1ccccc1)c1ccccc1 (stereo unspecified) | 94 | 102 | 4 | 102
Cc1nc2ccccc2c2oc(C(=O)NCc3ccc(Cl)cc3)cc12 | 104 | 72 | 2 | 113
Cc1nc2cccc(C(=O)O)c2o1 | 90 | 92 | -11 | ·
Nc1nnc(SCC(=O)NCc2ccco2)s1 | 97 | 89 | -9 | ·
CCn1ncc(CN(C)C(=O)c2cnn3c(C(F)F)cc(-c4ccccc4)nc23)c1C | · | · | -72 | 103
CC(C)OC(=O)CCN1C(=O)/C(=C/c2ccccc2)SC1=S | 88 | 88 | · | 105
O=C(NCc1cccc2ccccc12)C(c1ccccc1)c1ccccc1 | 118 | 107 | -8 | ·
O=C(CSc1n[nH]c(-c2ccncc2)n1)N(c1ccccc1)C1CCCCC1 | 75 | 82 | -26 | ·
COc1ccc(CCNC(=O)c2ccc(Cn3c(=O)c4ccccc4n(Cc4cccc(F)c4)c3=O)cc2)cc1OC | 102 | 80 | -7 | 108
O=C(Cn1ncc2c(=O)oc3ccccc3c21)NCc1cccnc1 | 97 | 91 | 1 | 95
O=C(Nc1ccc2oc(-c3ccc(Br)cc3)nc2c1)c1cc2ccccc2o1 | 100 | 85 | -51 | 105
Nc1cc(N)nc(SCC(=O)Nc2ccccc2)n1 | 68 | 76 | -2 | 103

Random draw from the library. Share with any hit: about 0.83%.
